# Vaccinia mCherry: qHTS for Stage-Specific Inhibitors of Vaccinia Orthopoxvirus: mCherry Reporter Primary qHTS | AID 720579, 2013 | Vaccinia virus mCherry reporter infection, fluorescence; about a quarter of the inactives have no number | Potency, µM (highest dose often 36.5 µM), for the others: top-dose activity change, negative = inhibition, most hits filed as inhibitors | actives 0.63% (n = 310,000); active = well fitted inhibition curve with a large enough effect; inconclusive = small, poorly fitted or top-dose-only effect; inactive = no such curve, though single readings can be large or run the other way; tested in A549 cells; also: nearly all actives have a fitted effect of over 35% in size; inactives centre near -10
# Vaccinia Venus: qHTS for Stage-Specific Inhibitors of Vaccinia Orthopoxvirus: Venus Reporter Primary qHTS. Potency, µM (highest dose often 36.5 µM), for the others: at the top dose activity change, negative = inhibition, most hits filed as inhibitors. Vaccinia virus Venus reporter expression, fluorescence. actives 0.46% (n = 330,000); active means well fitted inhibition curve with a large enough effect; inconclusive means small, poorly fitted or top-dose-only effect; inactive means no such curve, though single readings can be large or run the other way; tested in A549 cells; also: nearly all actives have a fitted effect of over 30% in size; inactives centre near -10
# * marks the source's active call; other numbers are inactive results; i = inactive; ? = inconclusive; . = not tested or not shown. % is scaled to controls: 0 for no effect and ±100 for the full control effect; potency is read from the fitted curve at half-maximal effect. Not a hit list; about 0.87% have a hit in one of these screens.
CC(=O)c1cccc(NC(=O)N2CCC(NC(=O)c3ccco3)CC2)c1
  Vaccinia mCherry = -13%
  Vaccinia Venus = 4%

CN(Cc1ccc(F)cc1)C(=O)c1ccc(NS(=O)(=O)c2ccccc2)cc1
  Vaccinia mCherry = -17%
  Vaccinia Venus = -12%

CCC(=O)OC1(C)C(=O)C=C2C=C(c3ccc(C#N)cc3)OC=C2C1=O (stereo not given)
  Vaccinia mCherry = -24%
  Vaccinia Venus = 5%

CCOc1ccccc1NC(=O)CSc1nnc(-c2cccnc2)o1
  Vaccinia mCherry = -2%
  Vaccinia Venus = -15%

Cc1ccc(C)c(NC(=O)Cn2nnc(C(=O)NCCc3ccccc3)c2N)c1
  Vaccinia mCherry = i
  Vaccinia Venus = -12%

c1ccc(-c2noc(-c3ccc4c(c3)OCO4)n2)nc1
  Vaccinia mCherry = i
  Vaccinia Venus = -14%

Cc1ccc(-n2cc(CN(C)Cc3ncc[nH]3)c(-c3cccc(C)c3)n2)cc1
  Vaccinia mCherry = ?
  Vaccinia Venus = -26%

CCOC(=O)NN=C1CN(S(=O)(=O)c2ccc(C)cc2)C1
  Vaccinia mCherry = -1%
  Vaccinia Venus = -1%

COC(=O)c1ccc2c(c1)N(CC(=O)Nc1ccc(C)c(C)c1)C(=O)c1ccccc1S2
  Vaccinia mCherry = 10%
  Vaccinia Venus = 8%

C#CCOCCOCCOCCNc1nc(N2CCN(C(=O)[C@H](CCC(=O)O)n3cc(C(N)CO)nn3)CC2)nc(N2CCN(C(=O)[C@H](Cc3ccc(O)cc3)n3cc(C(N)[C@H](C)CC)nn3)CC2)n1 (stereo not given in full)
  Vaccinia mCherry = i
  Vaccinia Venus = -2%

CCCCC(=O)Nc1cc(C(=O)NCCc2ccccc2)ccc1Cl
  Vaccinia mCherry = -6%
  Vaccinia Venus = -9%

N#CC1=C(N)Oc2cc(O)ccc2C1c1cccnc1 (stereo not given)
  Vaccinia mCherry = -10%
  Vaccinia Venus = -10%

CCc1ccccc1NC(=O)c1cc(C2CC2)on1
  Vaccinia mCherry = i
  Vaccinia Venus = -2%

CC(=O)c1c(N2CCN(CCO)CC2)nc(=S)n(-c2ccccc2)c1C
  Vaccinia mCherry = i
  Vaccinia Venus = -9%

CC(=O)Nc1ccc(C(=O)N2CCCCC2c2cc(C(=O)NCc3cccnc3)no2)cc1 (stereo not given)
  Vaccinia mCherry = 2%
  Vaccinia Venus = -10%

Cc1nc(CS(=O)(=O)c2ccc(Cl)cc2)cc(Sc2ccc(Cl)cc2)n1
  Vaccinia mCherry = .
  Vaccinia Venus = ?

N#Cc1nc(N2CCCCC2)nc(N2CCCCC2)n1
  Vaccinia mCherry = -12%
  Vaccinia Venus = -16%

Cc1cc(C(=O)NCc2ccccc2Cl)c2ccccc2n1
  Vaccinia mCherry = -16%
  Vaccinia Venus = 1%

COc1cc(Cl)c(C)cc1NC(=O)CCn1cnc2onc(-c3ccc(F)cc3)c2c1=O
  Vaccinia mCherry = -15%
  Vaccinia Venus = -10%

COc1ccc(NC(=O)CSc2ccc(C)cc2)cc1
  Vaccinia mCherry = -28%
  Vaccinia Venus = -21%

# Some values from the list:
# Value of `C#CCOCCOCCOCCNc1nc(N2CCN(C(=O)[C@H](CCC(=O)O)n3cc(C(N)CO)nn3)CC2)nc(N2CCN(C(=O)[C@H](Cc3ccc(O)cc3)n3cc(C(N)[C@H](C)CC)nn3)CC2)n1` (stereo not given in full) in Vaccinia Venus: -2%
# Value of `CCOC(=O)NN=C1CN(S(=O)(=O)c2ccc(C)cc2)C1` in Vaccinia mCherry: -1%
# Value of `N#CC1=C(N)Oc2cc(O)ccc2C1c1cccnc1` (stereo not given) in Vaccinia mCherry: -10%
# Value of `COC(=O)c1ccc2c(c1)N(CC(=O)Nc1ccc(C)c(C)c1)C(=O)c1ccccc1S2` in Vaccinia Venus: 8%
# Value of `CCCCC(=O)Nc1cc(C(=O)NCCc2ccccc2)ccc1Cl` in Vaccinia mCherry: -6%

# A portion from further up, for reference:
COc1cc(Cl)c(C)cc1NC(=O)CCn1cnc2onc(-c3ccc(F)cc3)c2c1=O
  Vaccinia mCherry = -15%
  Vaccinia Venus = -10%

COc1ccc(NC(=O)CSc2ccc(C)cc2)cc1
  Vaccinia mCherry = -28%
  Vaccinia Venus = -21%

# Part of the list above, tab-delimited:
SMILES	Vaccinia mCherry	Vaccinia Venus
CC(=O)c1c(N2CCN(CCO)CC2)nc(=S)n(-c2ccccc2)c1C	i	-9%
CC(=O)Nc1ccc(C(=O)N2CCCCC2c2cc(C(=O)NCc3cccnc3)no2)cc1 (stereo not given)	2%	-10%
Cc1nc(CS(=O)(=O)c2ccc(Cl)cc2)cc(Sc2ccc(Cl)cc2)n1	.	?

# Screening results from PubChem.
